# YopH PTP inh: inhibitors of Yersinia enterocolitica YopH tyrosine phosphatase. fluorescence Ex485/Em525. inhibition, %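 (about 10 µM by stock and volumes)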. 140,000 compounds, 0.16% hits. AID 898;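 active = inhibition of 50% or more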;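 note: controls were vehicle for no effect and minimum signal wells for full effect; inactives centre near -20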
# RecA splice inh: inhibitors of M. tuberculosis RecA intein splicing. P9WHJ3. cell-free RecA intein splicing, fluorescence. inhibition, %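 (about 9 µM by stock and volumes)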. 290,000 compounds, 0.75% hits; in the data active = inhibition above about 30%;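 note: 0% = vehicle wells and 100% = reference inhibitor control wells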
# Target sequence (P9WHJ3 whole entry, looked up, canonical isoform): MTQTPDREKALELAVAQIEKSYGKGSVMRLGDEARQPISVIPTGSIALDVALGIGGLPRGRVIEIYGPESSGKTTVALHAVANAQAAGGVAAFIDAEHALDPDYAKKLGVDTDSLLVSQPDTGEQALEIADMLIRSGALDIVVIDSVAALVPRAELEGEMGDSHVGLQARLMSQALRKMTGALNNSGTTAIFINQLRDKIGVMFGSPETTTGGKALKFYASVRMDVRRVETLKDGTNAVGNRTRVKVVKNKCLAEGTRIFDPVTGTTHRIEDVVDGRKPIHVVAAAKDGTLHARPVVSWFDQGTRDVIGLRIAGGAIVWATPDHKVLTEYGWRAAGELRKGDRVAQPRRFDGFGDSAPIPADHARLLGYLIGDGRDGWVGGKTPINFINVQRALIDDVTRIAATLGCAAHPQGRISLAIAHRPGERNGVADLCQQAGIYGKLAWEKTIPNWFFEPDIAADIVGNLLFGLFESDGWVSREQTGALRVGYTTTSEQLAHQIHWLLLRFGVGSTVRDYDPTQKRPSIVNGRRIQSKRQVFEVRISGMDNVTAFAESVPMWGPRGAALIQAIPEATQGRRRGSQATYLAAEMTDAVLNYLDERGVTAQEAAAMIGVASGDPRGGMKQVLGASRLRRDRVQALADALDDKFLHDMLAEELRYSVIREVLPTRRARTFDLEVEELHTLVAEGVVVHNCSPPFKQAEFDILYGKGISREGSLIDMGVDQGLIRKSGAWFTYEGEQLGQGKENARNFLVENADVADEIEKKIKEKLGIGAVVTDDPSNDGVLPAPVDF
# Mtb betalactam: beta-lactam sensitization of Mtb H37Rv; AID 434955; M. tuberculosis H37Rv growth with meropenem, percent inhibition; hits of this screen are not shown here; 330,000 compounds, 0.27% hits; inhibition, % at 25 µM;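 active = about 74% or more and at least 40 points above the plate without the antibiotic, then above 30% in a dose series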;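 note: growth measured after seven days incubation then overnight dye step; 0% = bacteria only wells and 100% = bacteria with antibiotic; twin plates without the antibiotic show which effects depend on it; some results filed as inactive read as strong as hits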
# Arbovirus inh: arbovirus infection inhibition. inhibition, % at 10 µM. AID 1251. 200,000 compounds, 0.37% hits. arbovirus infection cell-based antiviral screen;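 active = inhibition from about 30%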;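 note: bluetongue infection of BSR cells; cell survival read as ATP light after 72 h; 0% = infected wells without compound and 100% = uninfected wells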
# Mtb H37Rv: M. tuberculosis H37Rv growth inhibitors, H37Rv strain (AID 1626) | M. tuberculosis H37Rv growth inhibition; higher % means a stronger effect | one-dose inhibition, % at 10 µM; IC50 in µM for titrated hits | 220,000 compounds, 0.95% hits;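 active = confirmed in a dose series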;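 note: bacteria incubated seven days before Alamar blue readout; 0% = bacteria only wells and 100% = bacteria with antibiotic wells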
# Arbovirus inh repeat: recorded beside Arbovirus inh, whose call it bears; inhibition, %; measured here: 10K subset replicate screen; many hits read low in the repeat;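 first of two repeat runs on a subset; 0% = infected and 100% = uninfected wells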
# * = called active by the depositor; i = inactive; / = not tested or not shown. Some of the compounds tested (hit frequency here may not be typical).
SMILES,YopH PTP inh,RecA splice inh,Mtb betalactam,Arbovirus inh,Mtb H37Rv,others
O=[N+]([O-])c1ccc2oc(C(O)c3cccc(Cl)c3)cc2c1 (configuration not stated),/,15,22,/,/,
CCOc1ccc(/C=N/NC(=S)NC2CC3CCC2C3)cc1 (configuration not stated),/,-1.1,4,/,3%,
CCCCN(CC)Cc1c(O)ccc2c(-c3ccccc3)cc(=O)oc12,/,-66,-5,/,-2%,
CCOC(=O)N1CCC(NC(=O)CN2C(=O)CSc3nc(C)cc(C)c32)CC1,-35,0.4,2,7,/,Arbovirus inh repeat=-2
COc1ccc(C(C)C)cc1S(=O)(=O)NCc1ccccn1,-12,0.4,9,1,-2%,
CC1(c2ccccc2)CC(c2ccccc2)=Nc2ccccc2N1 (configuration not stated),/,8.3,-3,/,-1%,
COc1ccc(C(=O)c2cnc(C(C)C)n2C)cc1,-46,1.3,4,6,3%,Arbovirus inh repeat=-2
Cc1nnc(SCC(=O)Nc2ccccc2F)n1-c1ccc(F)cc1,/,0.7,1,/,/,
C=CCn1c(=N)c(C(=O)OCC)cc2c(=O)n3cccc(C)c3nc21,-18,/,3,/,-6%,
Cc1cc(C(=O)Nc2cccc(C(=O)O)c2)oc1C,-37,1.1,0,-7,1%,
COc1cccc(C2c3[nH]c4ccccc4c3C[C@H]3C(=O)N(C4CCN(Cc5ccccc5)CC4)CC(=O)N23)c1 (some centres not stated),/,11,96,/,/,
O=c1[nH]c(C2CCN(S(=O)(=O)c3ccccc3F)CC2)nc2c1nnn2Cc1ccc2c(c1)OCCO2,/,7.8,66,/,/,
CC(NC(=O)c1ccncc1)C(c1cccs1)N1CCOCC1 (configuration not stated),-20,-0.3,-2,9,-10%,
COC(=O)C(CC(=O)c1ccc(Br)cc1)n1cccn1 (configuration not stated),/,1.9,46,/,/,
CCOc1ccccc1NC1c2ccccc2C(=O)N1c1cccnc1 (configuration not stated),-29,-4.4,3,2,-9%,

# 3 compounds from above, sorted by formula weight, smallest number first:
SMILES,YopH PTP inh,RecA splice inh,Mtb betalactam,Arbovirus inh,Mtb H37Rv,others
COc1ccc(C(=O)c2cnc(C(C)C)n2C)cc1,-46,1.3,4,6,3%,Arbovirus inh repeat=-2
Cc1cc(C(=O)Nc2cccc(C(=O)O)c2)oc1C,-37,1.1,0,-7,1%,
Cc1nnc(SCC(=O)Nc2ccccc2F)n1-c1ccc(F)cc1,/,0.7,1,/,/,

# Back to the main list with the 3 entries that preceded the break.
SMILES,YopH PTP inh,RecA splice inh,Mtb betalactam,Arbovirus inh,Mtb H37Rv,others
CC(NC(=O)c1ccncc1)C(c1cccs1)N1CCOCC1 (configuration not stated),-20,-0.3,-2,9,-10%,
COC(=O)C(CC(=O)c1ccc(Br)cc1)n1cccn1 (configuration not stated),/,1.9,46,/,/,
CCOc1ccccc1NC1c2ccccc2C(=O)N1c1cccnc1 (configuration not stated),-29,-4.4,3,2,-9%,
Cc1nnc2sc(SCC(=O)Nc3cccc(Cl)c3)nn2c1=O,/,6.5,4,-9,-4%,
CCn1c(C)nc([N+](=O)[O-])c1Sc1ccc(F)cc1,-20,9.0,7,-10,-1%,
N#Cc1c(C(F)(F)F)cc(=O)n2c1[nH]c1ccccc12,/,i,-1,/,/,
CC1=NN(c2ccccc2)C(=O)C1/C=C1\C(=O)NC(=O)N(c2cc(C)cc(C)c2)C1=O (configuration not stated),-20,16,3,5,2%,
COC(=O)C1(CCSC)NC(c2ccc(OC)cc2OC)C2C(=O)N(c3cccc(C(C)=O)c3)C(=O)C21 (configuration not stated),/,-1.6,-2,/,/,
CCOc1ccc(S(=O)(=O)NC(C)C(=O)NCc2cccnc2)cc1 (configuration not stated),/,-0.3,-15,/,/,
COc1ccc(C(=O)CCN2CCC(C)CC2)cc1,/,0.3,33,/,/,
COc1ccccc1C(=O)Nc1ccc(S(=O)(=O)N2CCC(C)CC2)cc1,/,-2.5,6,/,/,
COc1ccc(/C(C)=C2\SC(=S)N(CCC(=O)O)C2=O)cc1,6,2.2,-4,-2,-7%,
CC1CCN(C(=O)Cc2nn(C)c(=O)c3ccccc23)CC1,-50,3.1,-1,2,-7%,
CCC(C)OC(=O)C[N+](C)(C)CCOC1CC2CCC1(C)C2(C)C (configuration not stated),/,0.3,92,3,69%,
COc1ccc(N(CC(=O)Nc2cccc(F)c2)S(=O)(=O)c2c(C)[nH]c(=O)[nH]c2=O)cc1,/,5.9,0,/,/,
CCOC(=O)C(=CNc1ccc(NC2=NCC(C)S2)cc1)C(=O)OCC (configuration not stated),-13,-0.6,7,-3,19%,
Cc1cccc(C)c1N1CCN(S(=O)(=O)c2ccccc2)CC1,/,0.0,-5,-2,-2%,
COC(c1ccccc1)c1nnc(CCC(=O)N(C)Cc2cccc(-n3cccn3)c2)o1 (configuration not stated),/,2.1,-7,-8,-5%,
CCN(CC)C(=O)c1ccc(Cn2cc([N+](=O)[O-])cn2)o1,/,2.4,-3,-6,-1%,
CCCCn1c(=O)[nH]c(=O)c2c1nc(-c1cc(Br)ccc1OC)n2C,/,0.5,2,/,/,
Cc1ccc([N+](=O)[O-])c(C(=O)N/N=C/c2cccs2)c1,/,0.6,40,/,10%,
COCc1ccc(CN2CCC(N3CCC(C(=O)N4CCCC4)CC3)CC2)o1,/,-2.1,-4,/,/,
Cc1ccc(N(C(=O)CNC(=O)c2ccco2)C(C(=O)NCC2CCCO2)c2ccccc2)cc1C (configuration not stated),/,3.3,0,/,/,
Fc1ccc(CNCc2cccc(Br)c2)cc1,-18,1.1,-9,4,2%,
CCOc1ccc(C(=O)C(C)=O)c(OCC)c1,/,-0.9,2,-5,2%,
COc1ccccc1NCCC#N,2,-1.4,-7,-4,-5%,
CN(C)C(=O)N1CCC(C(=O)N2CCCC(C(=O)c3ccc(C(C)(C)C)cc3)C2)CC1 (configuration not stated),/,0.7,1,7,1%,
COC(=O)c1c(NC(=O)/C=C/c2ccc3c(c2)OCO3)sc(C)c1C,-10,-22,0,-21,23%,
Cc1ccc(NC(=S)N2CCC(O)CC2)c(C)c1,/,-0.5,5,6,10%,
CCC(C)c1ccccc1NC(=O)c1cccnc1 (configuration not stated),-28,-1.1,1,0,8%,
O=C(NNC(=O)c1ccccc1F)C1=NN(c2ccccc2)C(=O)CC1,/,-0.3,24,/,/,
[N-]=[N+]=NCCN1CCC(O)CCC1=O (configuration not stated),/,0.9,3,/,/,
CC1=CC(C)(C)NC(=S)N1c1ccc(C)cc1,32,1.4,3,5,-6%,

# Brought forward from above: five compounds; new compounds follow.
SMILES,YopH PTP inh,RecA splice inh,Mtb betalactam,Arbovirus inh,Mtb H37Rv,others
Cc1ccc(NC(=S)N2CCC(O)CC2)c(C)c1,/,-0.5,5,6,10%,
CCC(C)c1ccccc1NC(=O)c1cccnc1 (configuration not stated),-28,-1.1,1,0,8%,
O=C(NNC(=O)c1ccccc1F)C1=NN(c2ccccc2)C(=O)CC1,/,-0.3,24,/,/,
[N-]=[N+]=NCCN1CCC(O)CCC1=O (configuration not stated),/,0.9,3,/,/,
CC1=CC(C)(C)NC(=S)N1c1ccc(C)cc1,32,1.4,3,5,-6%,
COc1cccc(N(C(=O)c2ccco2)C(C(=O)NC2CCCC2)c2ccc(N3CCOCC3)cc2)c1 (configuration not stated),/,3.5,1,/,/,
Cc1onc(-c2ccccc2Cl)c1C(=O)NCc1nc(-c2ccccc2)no1,14,1.3,-6,-4,6%,
COc1ccc(CSc2nc(O)cc(=O)n2CC(C)C)cc1F,/,-0.7,3,/,/,
COc1ccc(OC)c(NC(=O)c2ccc3c(c2)CCN3S(C)(=O)=O)c1,/,-3.3,-4,/,/,
CCOc1ccccc1NC(=O)CSc1nnc2ccc(-c3cccnc3)nn12,/,0.8,-2,12,4%,
Cc1ccc(N2C(=O)c3ccccc3C2=O)cc1,/,-1.8,-13,/,-6%,
CCOC(=O)c1c(CSc2cccs2)n(C)c2cc(Br)c(O)c(CN(C)C)c12,/,16,17,2,14%,
CCOc1ccccc1N1CCN(Cc2ccco2)CC1,-12,-1.1,-4,-4,-8%,
CCOC(=O)C1(CC2CC2)CCN(Cc2cn(C)c3ccccc23)CC1,/,/,2,18,7%,
COc1ccc(OC)c(CCNC(=O)CC2(CC3=NS(=O)(=O)c4ccccc4N3)CCCC2)c1,/,2.1,-11,/,/,
CCO[C@@H]1OC(C(=O)NCc2nc3ccccc3[nH]2)=C[C@H](c2csc3ccccc23)[C@H]1CCCO,/,4.9,97,-16,16%,
COc1cccc(N(C(=O)Cn2nnc(-c3cccs3)n2)C(C(=O)NC(C)C)c2ccc(C)o2)c1 (configuration not stated),-18,0.6,-7,3,1%,
CN(C)c1c(N)c(=O)oc2ccccc12,/,-1.4,-6,1,4%,
COc1cccc(-n2c(SCC(=O)N3CCCC3)nc3c([nH]c4ccccc43)c2=O)c1,-20,/,/,-3,/,
CC(=O)Nc1ccc(OCCC[n+]2cccc(C(=O)[O-])c2)cc1,/,-1.3,-1,2,-9%,
c1ccc2sc(N3CCCN(Cc4nc(-c5cnccn5)no4)CC3)nc2c1,/,1.2,-13,-13,4%,
Cc1ccc2cc(CN(Cc3ccco3)S(=O)(=O)c3c(C)ccc4nsnc34)c(=O)[nH]c2c1,-29,-1.9,6,0,-2%,
OCCC1CN(CC#Cc2ccccc2)CCN1C1CCCC1 (configuration not stated),/,0.6,2,-6,-2%,
Fc1ccc(NC(=S)N2CCCC2)cc1Cl,-17,-0.6,7,-2,-4%,
CSc1nc2nc3c(c(=O)n2[nH]1)CN(Cc1ccccc1)CC3,-29,-1.2,-6,-18,3%,
CCS(=O)(=O)N1CCC(C(=O)Nc2cccc(F)c2)CC1,/,-3.6,-4,/,/,
CCC(C)C12CN3CCN(CC(C)(C3)C1O)C2 (configuration not stated),/,5.8,-8,0,-8%,
COc1cc(S(=O)(=O)NCC2CCCO2)ccc1Br (configuration not stated),-7,-1.7,55,3,3%,
Cc1ccc(NS(=O)(=O)c2cccs2)cc1S(=O)(=O)N1CCCCCC1,/,0.7,-1,26,1%,

# Source: PubChem BioAssay (several laboratories)
